# BmaI1 = BmaI1 acyl-homoserine lactone synthase inhibition – biochemical, fluorescence intensity, with counterscreen (AID 720554); 0.4% of 12,000 active; inhibition, %; BmaI1 enzyme assay, fluorescence intensity; hits give high values; test concentration not given here; a few actives read low; strong numbers were not always called active;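 active = both replicates within 2 robust z-scores of the inhibited control and a quiet counterscreen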;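 note: 0% = uninhibited enzyme and 100% = inhibited control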
# BmaI1 counterscreen = second read-out of BmaI1, no call of its own (marks repeat the call); inhibition, %; measured here: counterscreen; design of the counterscreen not given here;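 first of two replicates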
# * hit, by the source's call. Only part of the results is shown (hit frequency here may not be typical).
mol	BmaI1	BmaI1 counterscreen
Cc1ccc(/C=C2\C(=O)N(c3ccccc3)c3ccccc32)o1	-2	-4
Cc1ccc(NCC(=O)N2CCN(c3ncccn3)CC2)cc1	25	22
O=C(O)c1cc(S(=O)(=O)N(Cc2ccco2)S(=O)(=O)c2ccc3c(c2)OCCO3)c(Cl)cc1Cl	14	12
Cn1c(Cc2cccs2)nnc1SCC(=O)c1ccc2c(c1)OCO2	-2	-4
O=C(COc1ccc2c3c(c(=O)oc2c1)CCC3)Nc1ccccc1N1CCOCC1	14	2
C/C(=N\NC(=O)c1ccccc1NS(=O)(=O)c1cccs1)c1ccco1	34	10
CC(=O)N[C@H](C(=O)O)C(C)C	4	10
FC(F)Oc1ccc(NC(=S)NNc2ccc(Cl)nn2)cc1	104*	28*
COc1ccc(N2CCN(C(=O)CN3CC=C(c4ccccc4)CC3)CC2)cc1	21	-12
Cc1ccc(NC(=O)NC(=O)CN2CCC(C)CC2)c(C)c1	10	9
O=C(C1COc2ccccc2O1)N1CCc2ccccc21 (configuration not stated)	7	-2
COCc1c(C(=O)OCc2cc(Cl)c3c(c2)OCO3)oc2ccccc12	8	2
COc1cc(-c2nnc(COC(=O)[C@@H](NS(=O)(=O)c3ccccc3)C(C)C)o2)cc(OC)c1OC	8	-1
Cc1cc(C)c(NC(=O)C(C)OC(=O)c2nccnc2N)c(C)c1 (configuration not stated)	12	-1
CCN=C1NN=C(c2ccc(NC(=O)CC)cc2)CS1	34	8
FC(F)(F)CNCc1ccco1	17	-2
CC(C)CN(C(=O)C1COc2ccccc2O1)c1c(N)n(CC(C)C)c(=O)[nH]c1=O (configuration not stated)	-22	4
CC(Oc1ccc(-c2ccccc2)cc1)c1nnc(-c2cccs2)o1 (configuration not stated)	0	7
Cc1nc2ccccn2c1C(=O)c1ccccc1	12	8
Cc1ccc(-n2c(O)c(C=NCCN3CCOCC3)c3ccccc3c2=O)cc1C	15	2
CC(C(=O)NCc1ccccc1)n1cc(S(=O)(=O)N2CCCC2)ccc1=O (configuration not stated)	11	9
O=C(NCC1COc2ccccc2O1)Nc1ccc(NC(=O)NCC2COc3ccccc3O2)cc1 (configuration not stated)	16	36
O=C(COC(=O)c1cc2ccccc2cc1O)NC1CC1	10	5
Cc1ccc(C)c(OCC(O)CNC2CCC(C)CC2)c1C (configuration not stated)	5	4

# A run of entries of the results above, for reference:
mol	BmaI1	BmaI1 counterscreen
CC(C)CN(C(=O)C1COc2ccccc2O1)c1c(N)n(CC(C)C)c(=O)[nH]c1=O (configuration not stated)	-22	4
CC(Oc1ccc(-c2ccccc2)cc1)c1nnc(-c2cccs2)o1 (configuration not stated)	0	7
Cc1nc2ccccn2c1C(=O)c1ccccc1	12	8

# Complete entries as entered above. Screens in order: BmaI1, BmaI1 counterscreen
# Profile of Cc1ccc(NCC(=O)N2CCN(c3ncccn3)CC2)cc1 : 25, 22
# Profile of COc1ccc(N2CCN(C(=O)CN3CC=C(c4ccccc4)CC3)CC2)cc1 : 21, -12

# Additional compounds follow.
mol	BmaI1	BmaI1 counterscreen
O=C(CN1CCCC1)Nc1ccccc1C(=O)c1ccccc1	12	6
CC1CC(C)CN(C(=O)COc2ccc(-c3nnco3)cc2)C1 (configuration not stated)	-2	-6
COc1ccc(-c2cc(-c3nnc(CON4C(=O)CCC4=O)o3)c3ccccc3n2)cc1OC	10	2
O=C(CNc1ccc(S(=O)(=O)N2CCCC2)cc1)N1CCN(S(=O)(=O)c2ccccc2)CC1	6	12
C=CCn1c(C)nnc1SC(C)C(=O)c1c(C)[nH]c2ccccc12 (configuration not stated)	15	6
CC1CC(C)CN(C(=O)Cn2nnc(-c3cccc(C(F)(F)F)c3)n2)C1 (configuration not stated)	13	8
COc1ccc(/C=C2\SC(=O)N(CCNC(=O)CC(C)(C)C)C2=O)cc1	13	11
CCN1C(=O)/C(=N\N2CCOCC2)c2ccccc21	19	12
CC(Cc1ccc(O)c(O)c1)(NN)C(=O)O (configuration not stated)	34	-12
O=C(Cc1c(F)cccc1Cl)OCc1ncc(-c2ccccc2)o1	16	10
O=C(CN1CCc2ccccc21)NC(=O)NCc1ccco1	70	34
COc1ccc(N2CCN(C3c4ccccc4CC3NS(=O)(=O)c3ccccc3)CC2)cc1 (configuration not stated)	38	-1
CCOC(=O)N1CCN(C(=O)COC(=O)c2ccc3c(c2)NC(=O)CS3)CC1	-2	-4
O=c1cc(CNc2ccc(S(=O)(=O)N3CCCC3)cc2)c2cc3c(cc2o1)CCC3	16	11
CCN(CC)C(=O)CSc1nc(-c2ccccc2)c(-c2ccccc2)o1	8	-6
CN(C)C(Cl)=Nc1ccccc1	10	6
CCN(CC)c1ccc(NC(=O)c2oc3ccccc3c2COC)cc1	52	-4
c1ccc(-n2ncc3c(NCc4ccccn4)ncnc32)cc1	8	10
CC1(C)Cc2cccc(OCC(=O)N3CCN(S(=O)(=O)c4ccc(F)cc4)CC3)c2O1	-6	-8
Cc1onc(-c2ccccc2)c1C(=O)OCCCn1c(=O)[nH]c2ccccc21	16	1
Nc1nnc(SCC(=O)OCC(=O)Nc2ncc(Cl)cc2Cl)s1	22	14
C=C(CC)C(=O)c1ccc(OCC(=O)O)c(Cl)c1Cl	8	22
O=C(C1Cc2ccccc2CN1C(=O)c1ccco1)N1CCc2ccccc21 (configuration not stated)	16	4
CCCCn1c(=O)[nH]c(=O)c2c1nc(-c1cccs1)c(=O)n2C	10	4
CC1CN(C(=O)C(C)N2CCc3ccccc3C2)CC(C)O1 (configuration not stated)	6	9
O=C(Nc1cccc(Oc2ccccc2)c1)C1CCC1	-12	-10
CC1(c2ccccc2)NC(=O)N(CN2CCN(S(=O)(=O)/C=C/c3ccccc3)CC2)C1=O (configuration not stated)	-2	6
CN(c1ncnc2sc(-c3ccccc3)cc12)C1CCS(=O)(=O)C1 (configuration not stated)	4	-2
CN1CCC(N(C)C(=O)c2cc3cc(Br)cc(Br)c3o2)CC1	6	6
Cc1ccc(CC(C#N)Sc2nc3ccccc3o2)cc1 (configuration not stated)	6	3
Cc1sc2ncn(CC(=O)NCCc3ccc(S(N)(=O)=O)cc3)c(=O)c2c1C	8	0
Cc1noc(C)c1COC(=O)C1COc2ccccc2O1 (configuration not stated)	11	8

# A draw from above in order of number of heavy atoms, lowest first:
mol	BmaI1	BmaI1 counterscreen
Cc1nc2ccccn2c1C(=O)c1ccccc1	12	8
O=C(CN1CCc2ccccc21)NC(=O)NCc1ccco1	70	34
Cc1ccc(-n2c(O)c(C=NCCN3CCOCC3)c3ccccc3c2=O)cc1C	15	2

# New compounds follow
mol	BmaI1	BmaI1 counterscreen
Cc1cc(F)ccc1S(=O)(=O)Nc1ccccc1C(=O)OCC(=O)NCc1ccco1	2	-6
COc1ccc(C)cc1CCNCc1ccc(NC(C)=O)cc1	10	7
Cc1noc(C)c1CSc1nnc(-c2ccc(Br)cc2)n1C1CCCCC1	8	4
O=C1CCC(C(=O)OCC(=O)Nc2ccc(N3CCOCC3)cc2)=NN1	9	9
CC(OC(=O)c1ccc2ccccc2c1O)C(=O)N1CCc2ccccc21 (configuration not stated)	16	7
Cc1ccc(Cn2ccsc2=NC(=O)CSc2nnc(-c3ccc(Cl)cc3)o2)cc1	-9	-12
CN1CCN(CCCN2c3ccccc3Sc3ccc(C(F)(F)F)cc32)CC1	-8	-2
CN(Cc1coc(-c2ccccc2)n1)Cc1coc(-c2ccccc2)n1	13	4
CN(C)CC[C@@H](c1ccc(Br)cc1)c1ccccn1	4	8
COc1ccc(C(=O)NCC(=O)OCc2nc3ccccc3c(=O)n2CC#N)cc1OC	11	13
Cc1cccn2c(=O)c(C=Nc3ccccc3)c(NCCO)nc12	28	10
O=C1CCCCCN1C(=O)c1ccccc1	18	7
CSc1ncc(C(=O)N(C)Cc2ccc3c(c2)OCO3)n1-c1ccccc1	18	8
CN(C1CCCCC1)S(=O)(=O)c1ccccc1NC(=O)Cn1cnc2ccccc21	16	6
Nc1ccc2c(c1)nc1n2CCCCC1	54	21
S=c1[nH]c(-c2ccccc2)cn1/N=C/c1ccc2c(c1)OCCO2	94	42
Cc1cc(C)c(C)c(S(=O)(=O)N2CCN(CCn3c(C)csc3=O)CC2)c1C	14	16
O=C(CCCc1cccs1)Nc1nccs1	6	8
Cc1cc(C(=O)COC(=O)CCc2nc3ccccc3s2)c(C)n1CC1CCCO1 (configuration not stated)	16	18
CCOc1cc(C#N)cc(Cl)c1O	22	6
COc1cc(NC(=O)CN2CCCCCC2=O)c(OC)cc1Cl	10	-6
Cc1ccc2nc(CSc3nnc(-c4cccs4)n3CC3CCCO3)cc(=O)n2c1 (configuration not stated)	17	6
O=C(NCC(c1ccco1)N1CCCCC1)C1(c2ccccc2)CC1 (configuration not stated)	5	4
COCCn1c(C)cc(-c2csc(NCc3ccc(C)cc3)n2)c1C	42	6
COc1cc(C(=O)N=c2c(C#N)cc3c(=O)n4cccc(C)c4nc3n2C(C)C)cc(OC)c1OC	0	-6
O=C1CN(C(=O)CSc2ncnc3ccccc23)c2ccccc2N1	4	0
COC(=O)c1ccc(COC(=O)c2ccc3c(c2)S(=O)(=O)N=C2CCCCCN23)o1	-3	-2
CN/C(=C\[N+](=O)[O-])NCCSCc1ccc(CN(C)C)o1	-14	4
CN(C)S(=O)(=O)c1ccc(C(=O)OCc2nc(-c3ccccc3)no2)cc1	13	-2
NS(=O)(=O)c1ccc(CCNC(=O)CN2CCNC(=O)C2)cc1	2	2
COc1ccc(-c2cc(C(=O)N3CCCC3)c3ccccc3n2)cc1	14	9
CC(C)NCC(O)c1cc(O)cc(O)c1 (configuration not stated)	-20	-12
O=C1CC[C@@]2(O)[C@H]3Cc4ccc(O)c5c4[C@@]2(CCN3CC2CC2)[C@H]1O5	19	23
CC(C)(C)NC(=O)NC(=O)CN1CCN(S(=O)(=O)/C=C/c2ccccc2)CC1	14	2
N#Cc1c(Cl)cccc1NCC1(N2CCOCC2)CCCCC1	3	0
COC(=O)CC1C(=O)NCCN1C(=O)c1ccc2c(c1)S(=O)(=O)c1ccccc1C2=O (configuration not stated)	4	6
Cc1cccc(N=C=S)c1C	3	4
NC(=S)Cc1nnc2n1CCCCC2	56	6
CN(Cc1ccccc1)Cn1ncn(C)c1=S	42	36
COC(=O)Nc1ccc(S(=O)(=O)n2cnc3ccccc32)cc1	54	18
O=C(CN1C(=O)CCC1=O)Nc1ccc(Cl)cc1	0	-2
Cc1ccc(CN(C)C(=O)c2ccc(C#N)cc2)o1	23	12
O=S(=O)(/C=C/c1ccccc1)Nc1ccc2cn[nH]c2c1	6	17
O=C1CCCCC1Sc1nnc(Cc2cccs2)n1CCc1ccccc1 (configuration not stated)	24	-3
COC(=O)c1ccc(COC(=O)c2cc(OC)c(OC)cc2NC(=O)c2ccco2)cc1	12	6
Cc1ccc2c(CC(=O)Nc3ccccc3)coc2c1	10	10
CN(C)C(=O)CN1CCN(C(=O)Nc2ccc(Cl)c(Cl)c2)CC1	8	6
CCOC(=O)c1sc(N)c(C#N)c1COC(=O)CCCN1C(=O)c2ccccc2C1=O	-4	-1
O=C(CSc1nccc(=O)[nH]1)N1N=C2/C(=C/c3ccco3)CCCC2C1c1ccco1 (configuration not stated)	20	14
CCCn1c(=O)n(C)c(=O)c2c(SC(C(=O)NC(=O)NC)c3ccccc3)nc(CC(C)C)nc21 (configuration not stated)	15	10
O=C(Cc1nc2ccccc2[nH]c1=O)c1ccc(Cl)cc1	12	6
O=C(/C=C/c1ccccc1)N1CCN(c2ncccn2)CC1	18	8
COc1cc(/C=N/NC(=O)Cc2csc(C)n2)cc(OC)c1	31	12
Cc1nnc(SC(C(=O)NC(N)=O)c2ccccc2)n1C1CCCCC1 (configuration not stated)	13	-4
Fc1ccccc1Cc1nnc2n1N=C(c1ccc(Cl)cc1)CS2	13	10
Cc1ccc(C(C)C)c(OCC(=O)N=Nc2c(O)n(CN3CCOCC3)c3ccccc23)c1	-8	-10

# More compounds.
mol	BmaI1	BmaI1 counterscreen
C(=C1/CCCC2=C1Nc1ncnn1C2c1ccccc1)/c1ccccc1 (configuration not stated)	10	3
O=S(=O)(Nc1ccc2cn[nH]c2c1)c1ccccc1	24	53
Cn1c(=NC(=O)C2Cc3ccccc3CN2C(=O)c2ccco2)sc2ccccc21 (configuration not stated)	14	8
CN(C(=O)C(C)(C)Oc1ccc(Cl)cc1)c1ccccc1	-2	-10
Cn1c(O)c(N=NC(=O)CCN2CCN(Cc3ccc4c(c3)OCO4)CC2)c2ccccc21	17	-6
O=C(NCC(c1ccco1)N1CCCCC1)c1cc(C(F)(F)F)cc(C(F)(F)F)c1 (configuration not stated)	10	2
CCc1nnc(NC(=O)CCCn2c(=O)oc3ccccc32)s1	18	8
N#Cc1ccc(CSc2nncn2-c2ccccc2)cc1	-6	-2
Cc1nc(SCCCCC#N)c2ccccc2n1	2	-4
Cc1[nH]nc(-c2ccc(O)cc2O)c1Oc1ccc(C(C)C)cc1	16	10
O=C(N/N=C/c1cccs1)C1=COCCO1	13	6
COc1cc(NC(C)C(=O)N2CCCC2)cc(OC)c1OC (configuration not stated)	3	2
CC(Oc1cccc(Br)c1)C(=O)NN (configuration not stated)	-8	6
CC(C)(C)c1ccc(Cn2c(CN3CCOCC3)nc3ccccc3c2=O)cc1	18	2
Cc1csc(=O)n1CCOC(=O)c1ccc(Br)cc1	6	2
Cn1c(SCC(=O)Nc2ccc3c(c2)OCCO3)nnc1C(F)(F)F	10	4
COC(=O)c1ccc(NC2=NCCCCC2)s1	1	4
COc1ccc(C(=O)N/N=C(\Cc2ncc[nH]2)c2ccccc2)cc1	10	-16
CC1(C)SC2C(NC(=O)COc3ccccc3)C(=O)N2C1C(=O)O (configuration not stated)	14	24
CS(=O)(=O)c1ccc(Cl)c(N)c1	7	-3
